Compound activity (PubChem)
HCMV UL50-53 inh: cytomegalovirus nuclear egress complex inhibition | HTRF UL50-UL53 interaction, normalized percent inhibition | inhibition, % (test concentration not listed) | actives 0.15% (n = 190,000) | AID 1918969;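 active means both replicates at 50% or more, plus weaker picks with an unusually low signal ratio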;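 further: stock transfer was 100 nL into about 20 µL; 0% = negative control wells and 100% = wells with untagged competitor protein; inactives centre near -12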
GIV-Gai inh: inhibitors of GIV GBA-motif binding to rat Galpha-i3; actives 0.42% (n = 210,000); Galpha-i3/FITC-GIV peptide fluorescence polarization, 90 min; stronger effect = lower value; scaled: aluminum fluoride 0%, vehicle 100%; P08753; AID 1224905; percent of control (FP), % (concentration not given with the values);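 active means replicate mean at 85% of control or lower, very high polarization wells dropped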;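 further: wells of about 15 µL received 100 nL stock; the first replicate is given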
Target sequence (P08753 whole entry, looked up): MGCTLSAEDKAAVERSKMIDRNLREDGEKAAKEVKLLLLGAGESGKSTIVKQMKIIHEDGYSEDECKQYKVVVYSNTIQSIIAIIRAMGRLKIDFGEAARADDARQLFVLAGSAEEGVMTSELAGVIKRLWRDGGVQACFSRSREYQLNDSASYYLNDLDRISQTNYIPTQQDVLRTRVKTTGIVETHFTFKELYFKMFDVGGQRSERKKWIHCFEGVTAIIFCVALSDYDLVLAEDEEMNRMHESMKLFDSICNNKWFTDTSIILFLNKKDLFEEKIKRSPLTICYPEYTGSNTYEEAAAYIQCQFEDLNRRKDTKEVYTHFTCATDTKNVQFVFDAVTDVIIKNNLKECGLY
Sa growth 42C: blocks Staphylococcus aureus growth | relative growth, % (concentration not given with the values) | actives 0.53% (n = 170,000) | S. aureus RN4220 growth, OD600, 20 h, 42 °C; stronger effect = lower value;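 active means growth at 42 °C up to 50% and 20 or more points under that at 30 °C, or under 10% at both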;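 further: 300 nL library stock went into each well; scaled to the means of positive and negative controls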
Sa growth 42C second temp: also measured in Sa growth 42C; calls as there; relative growth, %; measured here: growth at 30 °C;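 optical density after 20 h as mean of two plates; 100% = untreated growth and lower means inhibition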
Starred values were filed as active, the others as inactive; & = joins results of further samples.

Cc1ccc(CNC(=O)CCc2c(C)c3cc4c(C)coc4cc3oc2=O)cc1 was read as HCMV UL50-53 inh 8, GIV-Gai inh 101, Sa growth 42C 105 and Sa growth 42C second temp 91.
Screening COc1ccc(NC(=O)CN2C(=O)CCn3nc(-c4cccn4C)cc32)cc1 returned GIV-Gai inh 107, Sa growth 42C 79 and Sa growth 42C second temp 87.
For Cc1cccc(C)c1N=C1NC(=O)CS1 the results were HCMV UL50-53 inh -16, Sa growth 42C 83 and Sa growth 42C second temp 92.
Screening COCc1cc(C)nc(SCC(=O)Nc2cccc(C)c2C)c1C#N returned HCMV UL50-53 inh -20 and GIV-Gai inh 105.
`Cc1ccccc1OCc1nc2c3cnn(-c4ccccc4Br)c3ncn2n1` gave HCMV UL50-53 inh -10, GIV-Gai inh 98, Sa growth 42C 117 and Sa growth 42C second temp 89.
Nc1cc(C(=O)OCC(=O)c2csc(N3CCCCC3)n2)ccc1Cl was read as HCMV UL50-53 inh -41, Sa growth 42C 83 and Sa growth 42C second temp 94.
CCOC(=O)C1CCN(C(=O)C2CCCN2S(=O)(=O)c2cc3c(cc2Cl)NC(=O)CO3)CC1 (stereo not drawn) was read as HCMV UL50-53 inh -11 and GIV-Gai inh 107.
COc1ccccc1NC(=O)NCC(c1cccnc1)c1c[nH]c2ccccc12 (stereo not drawn) was read as HCMV UL50-53 inh -21 and GIV-Gai inh 96.
For CCOc1ccc2cc(-c3nnc(Nc4ccc(C)cc4)s3)c(=O)oc2c1 the results were HCMV UL50-53 inh -9, GIV-Gai inh 128, Sa growth 42C 103 and Sa growth 42C second temp 96.
For CC1(C)CC(=O)C(CC(=O)N2CCCCCC2)=C(O)C1 the results were HCMV UL50-53 inh -29, Sa growth 42C 86 and Sa growth 42C second temp 90.
Nc1nc2c(c(=O)[nH]1)C(c1ccc(O)cc1)CC(=O)N2 (stereo not drawn) was read as HCMV UL50-53 inh -6 and GIV-Gai inh 99.
Cc1cc(C(=O)C(C)OC(=O)c2ccc(S(=O)(=O)NCc3ccco3)cc2)c(C)n1-c1ccc(Cl)cc1 (stereo not drawn) was read as HCMV UL50-53 inh -2, Sa growth 42C 116 and Sa growth 42C second temp 96.
For CCOC(=O)Cn1c(=O)c2ccsc2c2c(C#N)c(SC)sc21 the results were HCMV UL50-53 inh -15, GIV-Gai inh 101, Sa growth 42C 99 and Sa growth 42C second temp 83.
CC1CCCN(Cc2cc(Cl)cc(Cl)c2O)C1 (stereo not drawn) was read as HCMV UL50-53 inh -10, GIV-Gai inh 102, Sa growth 42C 106 and Sa growth 42C second temp 70.
For CC(C)c1ccc(C2C(C#N)=C(N)C(C#N)(C#N)C3=CCN(C)CC32)cc1 (stereo not drawn) the results were HCMV UL50-53 inh -44, Sa growth 42C 86 and Sa growth 42C second temp 83.
For COc1ccc(Cl)cc1N(CC(=O)N1CCc2ccccc2C1)S(=O)(=O)c1ccc(C)c([N+](=O)[O-])c1 the results were HCMV UL50-53 inh -23 and GIV-Gai inh 110.
`C=CCc1c(C)[nH]c2c(OC)cccc2c1=S` gave HCMV UL50-53 inh -64, GIV-Gai inh 107, Sa growth 42C 64 and Sa growth 42C second temp 31.
Cc1ccc(C(=O)/C=C/Nc2ccc(F)c(Cl)c2)o1 was read as HCMV UL50-53 inh -23, GIV-Gai inh 103, Sa growth 42C 124 and Sa growth 42C second temp 94.
For Clc1ccc(C2=NNC(=NCc3ccc4c(c3)OCO4)SC2)cc1 the results were HCMV UL50-53 inh -11, Sa growth 42C 90 and Sa growth 42C second temp 93.
`CC(Sc1nncn1-c1ccccc1)C(=O)Nc1ccccc1` (stereo not drawn) gave HCMV UL50-53 inh -24, Sa growth 42C 78 and Sa growth 42C second temp 95.
Screening CC(Oc1ccc(Cl)cc1Cl)C(=O)NNc1nc(Cl)nc(N(C)C)n1 (stereo not drawn) returned HCMV UL50-53 inh -21, GIV-Gai inh 105, Sa growth 42C 114 and Sa growth 42C second temp 98.
CC(C)CCNC(=O)c1ccc2nc(Cc3ccccc3)oc2c1 was read as GIV-Gai inh 98, Sa growth 42C 81 and Sa growth 42C second temp 91.
O=C(CCCc1nc(-c2cccnc2)no1)Nc1nc(-c2ccccc2)cs1 was read as HCMV UL50-53 inh -18 and GIV-Gai inh 105.
For CCOc1cc2c(cc1/C=C1/NC(=O)N(Cc3ccccc3)C1=O)OCO2 the results were GIV-Gai inh 105, Sa growth 42C 108 and Sa growth 42C second temp 83.
CCOC(=O)c1c(NC(=O)c2cccc(F)c2)sc(C(=O)Nc2cc(C(F)(F)F)ccc2Cl)c1C was read as HCMV UL50-53 inh 4 and GIV-Gai inh 102.
`CCOc1cnc(C(=O)NN=C(N)N)o1` gave HCMV UL50-53 inh -32, GIV-Gai inh 100, Sa growth 42C 89 and Sa growth 42C second temp 87.
Screening CC1=NN(c2ccccc2)C(=O)/C1=C\c1cn(CCC(=O)O)nc1-c1cc2ccccc2o1 returned HCMV UL50-53 inh 14, Sa growth 42C 89 and Sa growth 42C second temp 99.
For CSC(=C(C#N)C#N)N1CCN(c2ccccc2)CC1 the results were HCMV UL50-53 inh -28, Sa growth 42C 81 and Sa growth 42C second temp 96.
For CCOc1ccccc1NS(=O)(=O)c1ccc2c(c1)CC(C)N2C(=O)C1CCC1 (stereo not drawn) the results were GIV-Gai inh 108, Sa growth 42C 86 and Sa growth 42C second temp 82.
`CC(C)Cn1c(=O)c2ccccc2n2c(CCC(=O)NCCCN3CCN(c4ccccc4F)CC3)nnc12` gave HCMV UL50-53 inh -14, GIV-Gai inh 101, Sa growth 42C 102 and Sa growth 42C second temp 88.

The closing 2 compounds of the part before open the next one:
For CCOc1ccccc1NS(=O)(=O)c1ccc2c(c1)CC(C)N2C(=O)C1CCC1 (stereo not drawn) the results were GIV-Gai inh 108, Sa growth 42C 86 and Sa growth 42C second temp 82.
`CC(C)Cn1c(=O)c2ccccc2n2c(CCC(=O)NCCCN3CCN(c4ccccc4F)CC3)nnc12` gave HCMV UL50-53 inh -14, GIV-Gai inh 101, Sa growth 42C 102 and Sa growth 42C second temp 88.
For CC(C)N[C@H]1CS(=O)(=O)C[C@@H]1S(=O)(=O)c1ccc(F)cc1 the results were HCMV UL50-53 inh -7 and GIV-Gai inh 100.
For CC(OC(=O)COc1cccc(C(F)(F)F)c1)C(N)=O (stereo not drawn) the results were HCMV UL50-53 inh -10, Sa growth 42C 76 and Sa growth 42C second temp 91.
CNc1ccc(Cl)cc1C(=O)NCCc1ccc(OC)c(OC)c1 was read as HCMV UL50-53 inh -6, GIV-Gai inh 103, Sa growth 42C 120 and Sa growth 42C second temp 82.
Screening CCc1ccccc1Nc1nc(N)nc(CO/C(=C(\C#N)c2nnc3n2CCCCC3)C(F)(F)F)n1 returned HCMV UL50-53 inh -23, Sa growth 42C 79 and Sa growth 42C second temp 77.
Screening Fc1cccc(F)c1C=Nc1cccnc1Cl returned HCMV UL50-53 inh -33, Sa growth 42C 152 and Sa growth 42C second temp 85.
For CCN(CC)S(=O)(=O)c1c(C)nn(S(=O)(=O)c2ccccc2)c1C the results were HCMV UL50-53 inh -4&-18, GIV-Gai inh 108&105, Sa growth 42C 104 and Sa growth 42C second temp 91.
CCN1C(=O)/C(=C2\SC(N3CCCCC3)=NC2=O)c2ccccc21 was read as HCMV UL50-53 inh -72, GIV-Gai inh 103, Sa growth 42C 89 and Sa growth 42C second temp 81.
CS(=O)(=O)N1CCCC(C(=O)NCc2cccnc2)C1 (stereo not drawn) was read as HCMV UL50-53 inh 11, GIV-Gai inh 105, Sa growth 42C 100 and Sa growth 42C second temp 101.
COCCn1c(=NC(=O)c2ccccc2)sc2cc(OC)ccc21 was read as HCMV UL50-53 inh -22, GIV-Gai inh 103, Sa growth 42C 86 and Sa growth 42C second temp 82.
`CN(C(=O)CSc1nnnn1C)C1CCCCC1` gave HCMV UL50-53 inh -33, Sa growth 42C 97 and Sa growth 42C second temp 92.
For CCOC(=O)c1cc(NC(=O)Nc2cc(C)ccc2C)c(C)nc1C the results were HCMV UL50-53 inh -8, GIV-Gai inh 99, Sa growth 42C 86 and Sa growth 42C second temp 76.
`c1ccc2sc(-c3ccc(CNCCCn4ccnc4)o3)nc2c1` gave HCMV UL50-53 inh -63, Sa growth 42C 89 and Sa growth 42C second temp 90.
CCn1c(CNc2ccc(C)cc2)nnc1SCc1ccccc1 was read as HCMV UL50-53 inh 5, GIV-Gai inh 103, Sa growth 42C 114 and Sa growth 42C second temp 108.
`CCCn1cc(SCC(=O)Nc2sc3c(c2C(=O)OCC)CCC3)c2ccccc21` gave GIV-Gai inh 106, Sa growth 42C 95 and Sa growth 42C second temp 92.
`CCOC(=O)c1cnc(C(F)(F)F)nc1NNC(=O)c1ccccc1` gave HCMV UL50-53 inh -5, GIV-Gai inh 103, Sa growth 42C 50 and Sa growth 42C second temp 34.
Screening CCN(C(=O)CSc1nc2ccccc2nc1C)C1CCCCC1 returned HCMV UL50-53 inh -32, Sa growth 42C 109 and Sa growth 42C second temp 91.
Screening Cc1cccc(NC(=O)Nc2cccc(C)c2)c1 returned HCMV UL50-53 inh -6, GIV-Gai inh 106, Sa growth 42C 105 and Sa growth 42C second temp 92.
`O=C(C1Cc2ccccc2CN1S(=O)(=O)c1ccc2c(c1)OCCO2)N1CCCC1` (stereo not drawn) gave HCMV UL50-53 inh -27, Sa growth 42C 105 and Sa growth 42C second temp 96.
N#C/C(=C\c1ccc(Cl)cc1Cl)c1nc(-c2cc3c(ccc4ccccc43)oc2=O)cs1 was read as HCMV UL50-53 inh -15 and GIV-Gai inh 104.
For CC1CC(C)CN(C(=O)COc2ccccc2F)C1 (stereo not drawn) the results were HCMV UL50-53 inh -7, Sa growth 42C 102 and Sa growth 42C second temp 90.
Screening Cc1ccc2nc(SCC(=O)N(c3ccccc3)C(C)C)[nH]c2c1 returned GIV-Gai inh 105, Sa growth 42C 79 and Sa growth 42C second temp 82.
`O=C(OCc1ccccc1)c1ccccc1C(=O)c1ccccc1` gave HCMV UL50-53 inh -26, Sa growth 42C 112 and Sa growth 42C second temp 83.
`CC(C)(C)c1cn2cccc(OCc3ccc(Cl)c(Cl)c3)c2n1` gave HCMV UL50-53 inh -39, GIV-Gai inh 104, Sa growth 42C 87 and Sa growth 42C second temp 69.
`CC1CCCCN1C(=O)C1CC(c2ccc(F)cc2)=NO1` (stereo not drawn) gave HCMV UL50-53 inh -9&11, GIV-Gai inh 102&99, Sa growth 42C 93 and Sa growth 42C second temp 87.
O=C(O)C(O)C(O)c1nc2ccccc2s1 (stereo not drawn) was read as HCMV UL50-53 inh 5, Sa growth 42C 87 and Sa growth 42C second temp 92.
Screening O=C(Nc1c(C(=O)c2ccccc2)oc2ccccc12)c1ccc(Cl)cc1 returned GIV-Gai inh 103, Sa growth 42C 93 and Sa growth 42C second temp 80.
For N#CCCn1nnc(CCN2C(=O)c3ccccc3C2=O)n1 the results were HCMV UL50-53 inh -43, Sa growth 42C 80 and Sa growth 42C second temp 89.
`CCc1c(C)nc(-n2nc(C)cc2NC(=O)c2ccc(Br)cc2)[nH]c1=O` gave HCMV UL50-53 inh -26 and GIV-Gai inh 96.
Screening CCN(C(=O)CSc1nnc2scc(-c3cccc(OC)c3)n12)c1ccccc1 returned HCMV UL50-53 inh -2, GIV-Gai inh 102, Sa growth 42C 107 and Sa growth 42C second temp 92.
Screening C=CCn1c(CSc2nc3ccccc3s2)nnc1SCC(=O)NCc1cccnc1 returned HCMV UL50-53 inh 3 and GIV-Gai inh 105.
Screening CCNC(=O)c1ccc2c(c1)sc1nc(-c3ccc(OC)cc3)cn12 returned GIV-Gai inh 104, Sa growth 42C 116 and Sa growth 42C second temp 57.
For COc1ccc(OC)c(C2N(Cc3ccc(C)cc3)CCCN2Cc2ccc(F)cc2)c1 (stereo not drawn) the results were GIV-Gai inh 108, Sa growth 42C 76 and Sa growth 42C second temp 95.

11 compounds from above, sorted by formula weight, descending.
N#C/C(=C\c1ccc(Cl)cc1Cl)c1nc(-c2cc3c(ccc4ccccc43)oc2=O)cs1 was read as HCMV UL50-53 inh -15 and GIV-Gai inh 104.
Screening C=CCn1c(CSc2nc3ccccc3s2)nnc1SCC(=O)NCc1cccnc1 returned HCMV UL50-53 inh 3 and GIV-Gai inh 105.
For COc1ccc(OC)c(C2N(Cc3ccc(C)cc3)CCCN2Cc2ccc(F)cc2)c1 (stereo not drawn) the results were GIV-Gai inh 108, Sa growth 42C 76 and Sa growth 42C second temp 95.
Screening CCN(C(=O)CSc1nnc2scc(-c3cccc(OC)c3)n12)c1ccccc1 returned HCMV UL50-53 inh -2, GIV-Gai inh 102, Sa growth 42C 107 and Sa growth 42C second temp 92.
Screening CCNC(=O)c1ccc2c(c1)sc1nc(-c3ccc(OC)cc3)cn12 returned GIV-Gai inh 104, Sa growth 42C 116 and Sa growth 42C second temp 57.
`CC(C)(C)c1cn2cccc(OCc3ccc(Cl)c(Cl)c3)c2n1` gave HCMV UL50-53 inh -39, GIV-Gai inh 104, Sa growth 42C 87 and Sa growth 42C second temp 69.
Screening Cc1ccc2nc(SCC(=O)N(c3ccccc3)C(C)C)[nH]c2c1 returned GIV-Gai inh 105, Sa growth 42C 79 and Sa growth 42C second temp 82.
`O=C(OCc1ccccc1)c1ccccc1C(=O)c1ccccc1` gave HCMV UL50-53 inh -26, Sa growth 42C 112 and Sa growth 42C second temp 83.
For N#CCCn1nnc(CCN2C(=O)c3ccccc3C2=O)n1 the results were HCMV UL50-53 inh -43, Sa growth 42C 80 and Sa growth 42C second temp 89.
For CC1CC(C)CN(C(=O)COc2ccccc2F)C1 (stereo not drawn) the results were HCMV UL50-53 inh -7, Sa growth 42C 102 and Sa growth 42C second temp 90.
O=C(O)C(O)C(O)c1nc2ccccc2s1 (stereo not drawn) was read as HCMV UL50-53 inh 5, Sa growth 42C 87 and Sa growth 42C second temp 92.
